# Ab BasE inh = inhibitors of Acinetobacter baumannii siderophore enzyme BasE | purified BasE, fluorescence polarization binding displacement | inhibition, % (no concentration beside the values) | hit rate 0.1% among 84,000 | AID 485350;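 active = both replicates above 25% with normal brightness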;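 also: 0% = negative plate control signal and 100% = positive plate control signal; stock transfer was 100 nL into about 30 µL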
# KSHV LANA nucl = LANA-nucleosome interaction inhibition | hit rate 0.3% among 51,000 | FITC-LANA1-23 / chicken nucleosome fluorescence polarization; hits give low values | z-score (test concentration not listed);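 active = both repeat wells score below -2 in polarization z-score versus plate sample wells, excluding overly bright wells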;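 also: 100 nL library stock added to about 30 µL; numbers are from one replicate; some results filed as inactive read as strong as hits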
#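 Test system: purified chicken nucleosomes with FITC-labelled LANA N-terminal peptide (1-23); Input: 240 nM purified chicken nucleosomes (480 nM peptide binding sites), final; Medium: TEN-BT buffer, pH 7.5; Timing: 10–45 min, room temperature; Technique: fluorescence polarization, 480 nm excitation, 535 nm parallel and perpendicular emission; Replication: duplicates.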
# The depositor's hits bear a star; . = no result given; & = joins results of further samples.
# Below each SMILES: Ab BasE inh | KSHV LANA nucl
- Cc1ccccc1-n1nc(C)c2c1CC(C)(C)CC2=O
    0.0 | -1.2
- c1ccc2[nH]c(-c3nc4ccccc4s3)nc2c1
    -14 | .
- Cc1cccc(OCC(=O)NC(=S)Nc2ccc(-c3nc4ccccc4o3)cc2)c1
    -6.4 | -0.14
- O=C(C1COc2ccccc2O1)N1CCc2ccccc21 (configuration not stated)
    3.4 | .
- COc1ccccc1C(=O)COC(=O)C1CCN(S(=O)(=O)c2cccs2)CC1
    -0.5 | .
- COCC(C)Nc1nc2c(s1)CCCC2 (configuration not stated)
    -0.2 | .
- O=C(NC1CCCc2ccccc21)c1cc(C2CC2)[nH]n1 (configuration not stated)
    -0.1 | -1.2
- O=C(O)c1ccc(N=C2NC(=O)C(CO)(CO)S2)cc1
    2.0 | .
- Cc1c(Cl)cccc1NC(=O)Nc1cccc(Cn2cccn2)c1
    3.0 | -0.64
- CCOC(=O)NC12CC3CC(CC(C3)C1)C2
    1.8 | 0.38
- CCN(CC)c1ccc(NC(=O)c2ccccc2C(=O)O)cc1
    . | -0.4
- Cc1ccc(NC(=O)NC(=O)CN2CCC(C)CC2)c(C)c1
    0.1 | .
- Cc1ccnc(NS(=O)(=O)c2ccc(NC(=O)/C=C/c3ccccc3)cc2)n1
    -0.6 | .
- O=C1C2ON(c3ccccc3)C(c3cccs3)C2C(=O)N1c1ccccc1 (configuration not stated)
    1.7 | -0.32
- COc1ccccc1NC(=O)CN(Cc1ccco1)C(=O)c1cccs1
    0.0 | .
- S=c1nc(N2CCCCC2)[nH]c(N2CCCCC2)n1
    0.7 | -0.068
- O=C1c2ccccc2C2CC(c3cc(Cl)ccc3Cl)=NN12 (configuration not stated)
    -0.7 | .
- CCOC(=O)c1cnc(SCc2nc(-c3ccc(C)cc3)oc2C)nc1N
    -1.8 | 0.44
- CC(=O)N(C(C)=O)c1cc(C)c(C#N)c2nc3ccccc3n12
    2.1 | .
- COC(=O)c1ccc(CSCC(=O)Nc2ccccc2)cc1
    1.5 | -0.41

# Filtered by structure, those above containing a carbonyl joined to an NH by a bond outside any ring (9)
# Below each SMILES: Ab BasE inh | KSHV LANA nucl
- Cc1cccc(OCC(=O)NC(=S)Nc2ccc(-c3nc4ccccc4o3)cc2)c1
    -6.4 | -0.14
- O=C(NC1CCCc2ccccc21)c1cc(C2CC2)[nH]n1 (configuration not stated)
    -0.1 | -1.2
- Cc1c(Cl)cccc1NC(=O)Nc1cccc(Cn2cccn2)c1
    3.0 | -0.64
- CCOC(=O)NC12CC3CC(CC(C3)C1)C2
    1.8 | 0.38
- CCN(CC)c1ccc(NC(=O)c2ccccc2C(=O)O)cc1
    . | -0.4
- Cc1ccc(NC(=O)NC(=O)CN2CCC(C)CC2)c(C)c1
    0.1 | .
- Cc1ccnc(NS(=O)(=O)c2ccc(NC(=O)/C=C/c3ccccc3)cc2)n1
    -0.6 | .
- COc1ccccc1NC(=O)CN(Cc1ccco1)C(=O)c1cccs1
    0.0 | .
- COC(=O)c1ccc(CSCC(=O)Nc2ccccc2)cc1
    1.5 | -0.41

# Additional compounds follow.
# Below each SMILES: Ab BasE inh | KSHV LANA nucl
- CCN(CC)C(=S)SCc1cn2cccc(C)c2n1
    -2.5 | .
- Nc1nc(SCC(=O)NCCN2CCOCC2)nc2sc3c(c12)CCC3
    2.0 | -0.28
- Cc1c(C(=O)CN2C(=O)COc3ccc(Cl)cc32)c2ccccc2n1C
    0.8 | -0.47
- COC(=O)c1ccc(C(=O)OC)c(N=CC2=C(O)CC(C)(C)CC2=O)c1
    0.6 | -0.075
- CONc1nc(NC(C)(C)C)nc(OCC#N)n1
    0.7 | 0.43
- COc1ccc(C(=O)CSc2nnc(C)s2)cc1OC
    -0.9 | 0.049
- Cc1cc(=O)n(CC(=O)Nc2ccc3c(c2)OCO3)c2c1c(C)nn2-c1cccc(F)c1
    3.7 | -0.32
- CCOC(=O)Cn1cc(I)c(=O)[nH]c1=O
    1.9 | 0.037
- Cc1ccc(Cc2ccc(NN)nn2)cc1
    . | -0.76
- NCCNC(=O)CCc1n[nH]c(=O)c2ccccc12
    2.1 | -0.004
- Cc1ccc2c(c1)N(CC(=O)N1CCCC1)C(=O)c1cccnc1O2
    2.4 | -0.42
- O=C1CCC(=O)N1CCCn1c2ccccc2c2nc3ccccc3nc21
    -1.8 | -0.75
- O=C(/C=C/c1ccccc1)C1=C(O)C(=O)N(c2ccccc2)C1c1ccccc1 (configuration not stated)
    2.1 | .
- CS(=O)(=O)N(CC(=O)N1CCCC1)Cc1ccc(F)cc1
    1.9 | 0.22
- O=C1c2ccccc2NC(c2ccccn2)N1CCCN1CCOCC1 (configuration not stated)
    0.2 | -0.6
- Cc1cc(OC(C)C(=O)NCC2CCCO2)cc(C)c1Cl (configuration not stated)
    0.2 | 1.1
- Cc1nsc2c1ccc1sccc12
    1.0 | -0.043
- CC(=O)N(Cc1ccccc1)Cc1cn(-c2ccccc2)nc1-c1cccs1
    2.3 | 0.21
- CC(C)CC(NC(=O)C1CCC(C)CC1)C(=O)O (configuration not stated)
    2.7 | -0.52
- Cc1[nH]nc(-c2ccc(O)cc2O)c1Oc1ccc(F)cc1
    1.2 | -0.72
- CNc1nc(-c2ccc3c(c2)CCN3C(=O)C(C)C)cs1
    -4.4 | 2.8
- FC(F)(F)CNCc1ccco1
    1.1 | .
- CCN(CC)S(=O)(=O)c1cccc2nsnc12
    1.5 | 0.072
- Cn1c2ccccc2c2[nH]c3ccccc3c21
    -0.2 | 0.72
- CCN=C1NN=C(c2ccc(NC(=O)CC)cc2)CS1
    -9.2 | .
- O=S(=O)(NCc1ccc(N2CCOCC2)cc1)c1cccs1
    . | -0.48
- CCc1nn(CC(=O)NCC2CCCO2)c(=O)c2cc3c(OC)cccc3n12 (configuration not stated)
    -0.4 | -0.29
- C[C@@H](O)[C@@H]1NC(=O)[C@H](CCCCN)NC(=O)[C@@H](Cc2c[nH]c3ccccc23)NC(=O)[C@H](Cc2ccccc2)NC(=O)[C@@H](NC(=O)[C@H](N)Cc2ccccc2)CSSC[C@@H](C(=O)N[C@H](CO)[C@@H](C)O)NC1=O
    . | 0.37
- O=C(OC1CCCCC1=O)c1ccc2c(c1)OCCO2 (configuration not stated)
    -2.6 | .
- Cc1onc(-c2ccccc2Cl)c1C(=O)NC(=S)N1CCCc2ccccc21
    0.6 | .
- COC(=O)CN1C=C(C(=O)OC)C(c2ccc(F)cc2)C(C(=O)OC)=C1
    -8.9 | -0.6
- COc1cc(OC)c(NC(=O)Nc2noc3c2COc2ccccc2-3)cc1Cl
    1.7 | -0.53
- Cc1ccc(C(=O)Nc2nc3ccccc3n3nnnc23)cc1
    -1.3 | .
- COc1ccc(C(=O)NCc2cccnc2)cc1C(=O)NCc1cccnc1
    -4.8 | -0.69&-0.52
- COc1ccc(OC)c(NC(=O)CCn2cnc3ccccc3c2=O)c1
    -1.2 | -0.95
- CC(=O)NC1C(=O)N(Cc2ccccc2)c2c(C)ccc(Cl)c21 (configuration not stated)
    0.7 | 0.16
- Cc1cc(C)c(C#N)c(Sc2ncnc3c2nnn3Cc2ccccc2)n1
    -0.7 | .
- C/C(=N\O)C(=O)Nc1cccc(C(F)(F)F)c1
    -4.9 | .
- Cc1cc(C)n(-c2ncc(S(=O)(=O)c3ccc(Cl)cc3)c(N)n2)n1
    -2.4 | .
- O=C(c1ccco1)N1N=C(c2ccccc2)CC1c1cc2cc3c(cc2nc1Cl)OCCO3 (configuration not stated)
    0.8 | -1.3
- CCCn1c2ccccc2c2cnn(CC(=O)NC3CCCC3)c(=O)c21
    0.0 | 1
- CCN(C(=O)Cc1ccc(Cl)cc1)c1ccccc1
    -1.1 | -0.42
- CC1CCCCC1NC(=O)CSCC(=O)O (configuration not stated)
    2.4 | .
- CCN(CC)CCCN
    1.6 | -0.21
- CCOC(=O)Nc1ccc2c(COC(=O)c3cccn3C)cc(=O)oc2c1
    0.2 | .
- CCOC(=O)C(Nc1cccc(CO)c1)c1ccccc1 (configuration not stated)
    -1.0 | .
- CCC12CN3CCN(CC(C3)/C1=N\NC(=O)Nc1ccccc1)C2
    1.0 | -0.72
- COc1cc2ncnc(SCC(=O)NN)c2cc1OC
    2.0 | .
- CC(Oc1ccc(C=C2C(=O)c3ccccc3C2=O)cc1)C(=O)O (configuration not stated)
    -0.2 | .
- COc1ccc(Br)cc1/C=N/c1ncn[nH]1
    0.7 | -0.13
- Cc1nc(-c2ccc(-n3nncc3-c3ccc(Br)cc3)cc2)cs1
    0.2 | .
- COc1ccc(CCN2CNC(=S)NC2)cc1OC
    -0.6 | 0.22
- CN1CCN(C(=O)C23CC4CC(CC(C4)C2)C3)CC1
    -0.5 | -0.53
- C=Cn1cc[n+](CC(=O)c2ccc(OC)cc2)c1
    4.0 | 0.62
- CCN(CC)c1ccc(CNC(CC(=O)O)c2cccs2)cc1 (configuration not stated)
    2.0 | 0.3
- CCCN1CCC(NC2CCCc3ccccc32)CC1 (configuration not stated)
    0.3 | -1.3
- O=C(CCc1nc2ccccc2s1)N1CCc2ccccc21
    -0.8 | .
- Cc1cc(/C=N/N2CCN(C)CC2)c(C)n1CC(F)(F)F
    0.1 | .
- N#Cc1c(N)n[nH]c1CCCNC(=O)C1c2ccccc2Oc2ccccc21
    -0.5 | .
- O=C(CCN1C(=O)S/C(=C\c2cccs2)C1=O)Nc1nccs1
    1.2 | .

# Next part
# Below each SMILES: Ab BasE inh | KSHV LANA nucl
- CC(C)c1ccc(NC(=O)C2=NNC(=O)CC2)cc1
    -1.9 | .
- Nc1c(C(=O)NCc2ccco2)c2nc3ccccc3nc2n1CCc1ccccc1F
    -1.0 | -0.73
- Cn1ccnc1Sc1cnc(SCC(=O)c2ccc(Cl)cc2)nc1-c1ccccc1
    1.1 | .
- Cc1ccsc1CNCC(O)c1ccccc1 (configuration not stated)
    -1.7 | -0.97
- Cc1cccc(C2CC(=O)Nc3c2c(=O)n(C)c(=O)n3C)c1 (configuration not stated)
    -4.1 | 1
- Cc1cc(C)c(NC(=O)C(C)OC(=O)c2nccnc2N)c(C)c1 (configuration not stated)
    0.6 | .
- CCN1CCCC1CNCC(=O)NC1(C)C2CCC(C2)C1(C)C (configuration not stated)
    0.3 | -0.57
- O=C(COC(=O)C1CC(=O)N(Cc2ccco2)C1)c1ccc(-c2ccccc2)cc1 (configuration not stated)
    -5.8 | .
- COC(=O)Cc1cc(=O)n(C(C)(C)C)[nH]1
    -0.1 | .
- Cc1ccc(-c2noc(-c3cc(C(C)(C)C)nn3Cc3ccccc3)n2)cc1
    0.0 | .
- N#Cc1ccc(COC(=O)c2ccc3c(c2)NC(=O)C2CCCN32)cc1 (configuration not stated)
    -7.7 | .
- COc1ccc2oc(=O)c(-c3nc4ccc(OC)cc4[nH]3)cc2c1
    4.4 | -0.39
- NC(=S)Nc1ccc(F)c(Cl)c1
    1.2 | .
- CC(=O)NC1=NN(C(C)=O)C(C)(CS(=O)(=O)c2ccc(C)c(C)c2)S1 (configuration not stated)
    4.1 | -0.076
- CC1(C)Cc2cccc(OCC(=O)Nc3ccc(S(=O)(=O)N4CCCC4)cc3)c2O1
    0.4 | .
- OCC1(CO)C2C3C4CC5C6C4C2C6C1C53 (configuration not stated)
    2.1 | -0.73
- CCOc1ccc(NC(=O)CSc2ccnc3c2c(=O)n(C)c(=O)n3C)cc1
    1.2 | -2
- Nc1nc2[nH]c(=S)[nH]c2c(=O)[nH]1
    -0.1 | 0.28
- COc1ccc(C2C3=C(CCCC3=O)N=C3c4ccccc4C(=O)C32)cc1 (configuration not stated)
    1.2 | .
- Cc1occc1-c1n[nH]c(=S)n1C
    0.6 | .
- O=C(CSc1ccccc1C(=O)Nc1nccs1)NCc1ccco1
    1.7 | .
- CCCc1c(C(=O)O/N=C/c2ccc(C#N)cc2)cnn1-c1ccccc1
    2.8 | -0.074
- CC(=O)OCC(=O)[C@@]1(OC(C)=O)[C@@H](C)C[C@H]2[C@@H]3C[C@H](F)C4=CC(=O)C=C[C@]4(C)[C@@]3(F)[C@@H](O)C[C@@]21C
    0.1 | -0.019
- CCOC(=O)c1ccc(Nc2ncnc3[nH]ncc23)cc1
    -0.4 | -0.79
- CCN(CC)S(=O)(=O)c1ccc(C(=O)NCc2ccc3c(c2)cc(C)n3C)cc1
    1.5 | -0.4
- CCOC(=O)c1c(CN2CCCC2)oc2ccc(OC)cc12
    -4.3 | 0.005
- COC(=O)CN(c1ccc(C)c(C)c1)S(C)(=O)=O
    -0.5 | 0.86
- O=C(Nc1ccccc1C(=O)Nc1ccc(Br)cc1)c1ccco1
    -0.4 | -0.49
- Cc1ccc(NCC(=O)N/N=C/c2ccncc2)cc1
    -0.1 | -0.46
- O=C(COC(=O)c1cc2ccccc2cc1O)NC1CC1
    0.3 | .
- CC1CCCCN1S(=O)(=O)c1ccc(C(=O)Nc2nc(-c3ccc4c(c3)OCO4)cs2)cc1 (configuration not stated)
    0.8 | -0.38
- Cn1cc(S(=O)(=O)NC2CCCCCCC2)c(S(=O)(=O)NC2CCCCCCC2)c1
    0.4 | 0.3
- COc1ccc(CCNC(=O)Cn2cnc3c(nnn3Cc3ccc(F)cc3)c2=O)cc1OC
    -0.9 | -0.91
- CC(C)NC(=O)/C(C#N)=C/c1ccc2c(c1)OCCO2
    -0.7 | .
- c1ccc2cc3cnccc3cc2c1
    2.5 | -0.43
- CC/C(=C\c1ccccc1)CN1CCCCC1
    -0.8 | .
- O=C(NCc1ccco1)C(=S)N1CCOCC1
    -0.3 | 0.27
- O=C(c1sc2ccccc2c1Cl)N1CCCCC1
    -0.5 | 0.51
- CCCCN1C(=O)c2ccc(C(=O)OCC(=O)Nc3ncc(Cl)cc3Cl)cc2C1=O
    0.7 | .
- NCCc1nnc(SCc2ccc(Cl)cc2)o1
    -3.1 | 0.34

# The list is partial; count on the stated rates, not on these rows.
